# TRPML1 ag – human mucolipin-1 channel agonism; Q9GZU1; activation, % (no concentration beside the values); TRPML1-expressing cells, Ca2+ dye fluorescence, FDSS; host cell line not named in the record; reference of the full effect not given here; actives 0.12% (n = 410,000); AID 624414; in the data active = activation above about 50%; inconclusive = about 30% to 50%; inactive = below about 30%; also: 0% is about no effect; the text of the record puts the active cut at 80%
# Target sequence (Q9GZU1 whole entry, looked up): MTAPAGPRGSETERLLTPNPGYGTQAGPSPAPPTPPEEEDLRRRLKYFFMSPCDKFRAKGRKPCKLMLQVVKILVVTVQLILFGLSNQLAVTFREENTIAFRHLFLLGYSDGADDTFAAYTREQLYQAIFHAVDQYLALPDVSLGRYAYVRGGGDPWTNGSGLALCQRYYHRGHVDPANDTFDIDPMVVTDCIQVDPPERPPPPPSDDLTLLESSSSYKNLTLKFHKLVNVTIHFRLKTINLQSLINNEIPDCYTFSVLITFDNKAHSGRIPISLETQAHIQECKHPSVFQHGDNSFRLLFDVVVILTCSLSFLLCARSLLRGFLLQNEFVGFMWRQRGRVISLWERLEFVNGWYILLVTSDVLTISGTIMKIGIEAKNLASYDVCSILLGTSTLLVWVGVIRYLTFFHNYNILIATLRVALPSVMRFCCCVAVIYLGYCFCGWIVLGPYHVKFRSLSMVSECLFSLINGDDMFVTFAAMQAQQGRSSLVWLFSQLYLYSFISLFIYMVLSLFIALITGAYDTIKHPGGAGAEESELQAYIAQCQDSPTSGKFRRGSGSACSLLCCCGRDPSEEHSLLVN
#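 Calcium fluorescence on an FDSS kinetic reader gave the read-out. Tet-induced TRPML1-DL cells were plated overnight, dye-loaded (Ca8 with quencher, 45-90 min, room temperature, dark), then read 110 s after compound addition, and again 110 s after 4uM final 54-4 (EC80).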
# TRPML1 blocker – inhibitors of human TRPML1 channel. Q9GZU1. TRPML1-inducible cells, Ca2+ dye fluorescence, FDSS; active compounds read low; inhibition of EC80 agonist-evoked calcium signal. activity change, negative = inhibition, % (test concentration not listed). actives 0.02% (n = 390,000). AID 624415; in the data active means activity change below about -50%; inconclusive means about -30% to -50%; inactive means above about -30%;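 also: stimulus is agonist 54-4 at its EC80 concentration; % is scaled to controls: 0 for no effect and ±100 for the full control effect; compound concentration not given in the record; the text of the record puts the active cut at -80%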
#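 Tet-induced TRPML1-DL cells loaded with Ca8 no-wash calcium dye were read kinetically on FDSS. Compound addition was followed by EC80 agonist 54-4 (4 uM final); inhibition was read over 110 s.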
# Active calls of the source: *; ? = inconclusive. Only part of the results is shown; the hit share may differ from the screen's.
# Order of results – TRPML1 ag | TRPML1 blocker
> Cc1ccc(NC(=O)c2c3c(nc4ccccc24)C(=O)N(C2CCCCC2)C3)cc1F
  -0.1 | 5.6
> CCOc1ccc(CCNC(=O)c2sc3nc4n(c(=O)c3c2C)CCCC4)cc1OCC
  -0.5 | 0.3
> CC1=C(c2ccc(Cl)cc2)S(=O)(=O)NC1=NCCCN1CCN(c2cc(C)ccc2C)CC1
  0.6 | 3.3
> Cc1ccc(Cl)cc1-n1ncc2c(N3CCC(C)CC3)ncnc21
  3.4 | 76.5
> COc1cc2c(cc1OC)C(COc1ccc3c(C)cc(=O)oc3c1)N(C(=O)c1ccc(Cl)cc1)CC2 (stereo not given)
  -0.4 | 10.8
> CCOc1ccc(C(=O)Oc2c(Sc3ccccc3)c(C)nn2C(C)(C)C)cc1OCC
  0.0 | -12.3
> Cc1ccc(C)c(NC(=O)Cn2nnc(C(=O)NCCc3ccccc3)c2N)c1
  1.8 | 12.3
> CCOc1ccc(C2CC(=O)c3c([nH]c(C(=O)OC4CCCCCC4)c3C)C2)cc1 (stereo not given)
  0.4 | 6.1
> COc1ccc(Br)cc1CNCc1c(C(=O)O)c(C)n(Cc2ccccc2C)c1C
  -0.9 | 29.3
> Cc1ccc(-c2nc(-c3cc4cccc(OCc5ccc(F)cc5)c4oc3=O)no2)cc1
  0.1 | 8.8
> CCS(=O)(=O)c1c(Nc2cc(C)ccc2C)sc(C(=O)c2ccccc2)c1N
  10.0 | 5.6
> CC(=O)Nc1nonc1-c1nnc(SCC(=O)Nc2ccccc2)n1-c1ccccc1
  -0.7 | 23.5
> CCC1CCCCN1C(=O)Cn1c(=O)n(CCCCCC(=O)NCc2ccccc2)c(=O)c2sccc21 (stereo not given)
  1.3 | -7.3
> Cc1sc2ncn(CC(=O)N(C)c3ccc(C(C)C)cc3)c(=O)c2c1S(=O)(=O)N1CCC(C)CC1
  0.2 | 12.2
> CC(NC(=O)Cc1ccc(NC(=O)N2CCCCc3ccccc32)cc1)c1ccccc1 (stereo not given)
  -1.1 | -10.1
> Cc1ccc(-n2ncc(C(=O)Nc3ccc(C)c(F)c3)c2C2CCN(C(=O)OC(C)(C)C)CC2)cc1C
  1.4 | 2.7
> O=S(=O)(c1cccc(Cl)c1)c1nnn2c1nc(NCc1ccc3c(c1)OCO3)c1sccc12
  0.2 | -5.7
> Cn1nnnc1SCCCNCc1ccccc1OCc1ccccc1F
  -0.7 | -1.0
> Cc1ccc(C)c(CN2C(=O)c3ccccc3S(=O)(=O)c3ccc(C(=O)Nc4ccccc4C(F)(F)F)cc32)c1
  3.1 | 13.3
> COC(=O)C1CCN(c2csc3ccc(C)cc3c2=O)CC1
  -0.6 | -13.1

# Nothing new here: entries from further up.
# Order of results – TRPML1 ag | TRPML1 blocker
> CCS(=O)(=O)c1c(Nc2cc(C)ccc2C)sc(C(=O)c2ccccc2)c1N
  10.0 | 5.6
> CC(=O)Nc1nonc1-c1nnc(SCC(=O)Nc2ccccc2)n1-c1ccccc1
  -0.7 | 23.5
> CCC1CCCCN1C(=O)Cn1c(=O)n(CCCCCC(=O)NCc2ccccc2)c(=O)c2sccc21 (stereo not given)
  1.3 | -7.3
> Cc1sc2ncn(CC(=O)N(C)c3ccc(C(C)C)cc3)c(=O)c2c1S(=O)(=O)N1CCC(C)CC1
  0.2 | 12.2

# Continued:
# Order of results – TRPML1 ag | TRPML1 blocker
> CN1CCN(C(c2ccc(F)cc2)c2sc3nc(-c4ccco4)nn3c2O)CC1 (stereo not given)
  2.8 | -0.8
> Cc1ccc(CNC(=O)Cn2c(=O)n(Cc3ccc(F)cc3)c(=O)c3sc4ccccc4c32)cc1
  -0.3 | 8.3
> Cc1ccccc1NC(=O)c1sc2nc(-c3ccncc3)ccc2c1N
  5.2 | 31.9
> O=S(=O)(Nc1cccc(-c2ccc(N3CCOCC3)nn2)c1)c1ccc(F)c(C(F)(F)F)c1
  0.0 | 7.9
> Cc1cc(C)cc(NC(=O)C2CCCN(c3cnccn3)C2)c1 (stereo not given)
  4.8 | 17.4
> CCOc1ccccc1Oc1nc(C)nc2c1oc1ccccc12
  1.9 | -0.1
> CCc1ccccc1NC(=O)CCNS(=O)(=O)c1ccc2c(c1)CCN2C(=O)C1CC1
  0.7 | 8.2
> Cc1cc(C)cc(NC(=O)CSCc2cc(=O)c3cc(Cl)ccc3[nH]2)c1
  4.3 | 15.0
> COc1ccc(Cl)cc1NC(=O)COC(=O)CC(C)(C)CC1=NS(=O)(=O)c2ccccc2N1
  0.7 | 4.9
> COc1cc(CN(C(=O)c2ccc(C)cc2)C2CCS(=O)(=O)C2)cc(OC)c1OC (stereo not given)
  0.6 | 4.2
> Cc1ccc(O)c(NC(=O)CCS(=O)(=O)c2nc(-c3ccc4c(c3)OCO4)cc(C(F)(F)F)n2)c1
  2.2 | 22.2
> CCn1nnc2cc(C(=O)Nc3cc(C)ccc3C)ccc21
  1.9 | 8.7
> Cc1cc(NC(=O)c2cc(-c3ccc(Cl)cc3)on2)n(-c2ccccc2)n1
  -0.5 | 5.1
> O=C(CS(=O)(=O)c1cccc2nsnc12)NCc1ccccc1Cl
  0.0 | -16.9
> COc1ccc2c(c1)c1c(c(=O)n(-c3cccc(C)c3)c(=O)n1Cc1cccc(Cl)c1)n2C
  0.8 | 5.3
> Cc1nn(S(=O)(=O)c2ccc(C(C)C)cc2)c(C)c1S(=O)(=O)N1CCCCC1
  -0.4 | -3.0
> CCOc1ccc(Cn2c(CNS(=O)(=O)c3c(C)cc(C)cc3C)nc3cccnc32)cc1
  -0.5 | 5.0
> O=C(C1CCC(Cn2c(=O)c3sccc3n(Cc3cccc(F)c3)c2=O)CC1)N1CCOCC1 (stereo not given)
  -0.4 | 8.0
> COC(=O)c1c(SC)nc2ccccc2c1OCc1cccc(C)c1
  0.6 | 4.1
> COc1ccc(CNC(=O)c2ccc(NC(=O)N3CCSc4ncccc43)cc2)cc1
  0.5 | 1.6
> CCNC(=O)c1c2c(nc3ccccc13)C(=O)N(C1CCCCC1)C2
  -0.4 | 1.8
> Cc1ccc(NC(=O)Cn2cc(S(=O)(=O)Cc3cccc(Cl)c3)c3ccccc32)cc1C
  0.5 | -15.7
> COc1ccccc1CNC(=O)c1cccc(Nc2nc3ccccc3n3nnnc23)c1
  -0.1 | 15.0
> CCc1ccc(NC(=O)c2cc(S(=O)(=O)N3CCCCCC3)ccc2F)cc1
  0.7 | 30.8
> Cc1cccc(OCC(=O)NCC2(N3CCN(C)CC3)CCCCC2)c1
  1.3 | -12.3
> CCCCOc1cccc(C(=O)Nc2cccc3ccc(C)nc23)c1
  1.8 | 34.6
> COc1ccc(-c2nc3n(n2)C(c2cccc(C)c2)C(C(N)=O)=C(C)N3)cc1OC (stereo not given)
  -0.3 | 3.4
> CCOC(=O)c1cnc2c(C)cc(C)cc2c1Nc1ccc(N2CCOCC2)cc1
  -0.5 | -5.6
> CCc1ccc(NC(=O)Cn2c(=O)n(Cc3ccccc3)c(=O)c3oc4ccccc4c32)cc1
  1.1 | 3.8
> Cc1cccc(CNC(=O)c2ccc(Cn3c(SCc4cccc(F)c4)nc4cccnc43)cc2)c1
  4.2 | 1.6
> COc1ccc(C(=O)Nc2nonc2-c2ccc(OC)c(OC)c2)cc1Cl
  2.2 | -16.7
> CCN(CC)C(=O)CSc1nc(-c2ccccc2F)nc2c1Cc1c(CO)cnc(C)c1O2
  2.8 | 37.3
> COc1ccc(C)cc1NS(=O)(=O)c1ccc2c3c(cccc13)C(=O)N2
  -1.0 | 47.3
> Cc1ccccc1NC(=O)CN1C(=O)C(C)(C)c2ccccc21
  -0.7 | -14.5
> Cc1ccc2c(c1)C(c1ccc(F)cc1)N(C(=O)c1ccc(S(=O)(=O)N3CCCCC3)cc1)CC(=O)N2 (stereo not given)
  3.7 | 12.1
> Cc1ccc(-c2nc3ccccc3[nH]2)cc1NC(=O)COc1cccc(C)c1C
  3.4 | 21.4
> Cc1nn(-c2nc(-c3ccc(F)cc3)cc(C(F)(F)F)n2)c(C)c1Cl
  2.8 | 78.9
> COCCNc1ccc(-c2nc(-c3cccc(C)c3)no2)cc1[N+](=O)[O-]
  -0.5 | -15.8
> CCCCOc1ccc(C(=O)N(Cc2ccc(N(C)C)cc2)Cc2ccco2)cc1
  0.3 | 4.3
> Cc1ccc(NC(=O)c2cccc3c(=O)c4c([nH]c23)CCCC4)c(C)c1
  -1.0 | 4.5
> COC(=O)c1ccc(NC(=O)CN2CCCN(Cc3ccc(Cl)cc3)S2(=O)=O)cc1
  3.8 | 22.0
> COc1ccc(CNC(=O)C(=O)NCC(c2ccc3c(c2)OCO3)N2CCOCC2)cc1 (stereo not given)
  0.4 | -6.9
> CCc1ccc(NC(=O)c2cc3nc(-c4ccc(C)cc4)cc(C(F)(F)F)n3n2)cc1
  -0.3 | 13.4
> CCOC(=O)c1ccc(N2CCN(c3cccc(Cl)c3)CC2)c(NC(=O)Nc2ccc(Cl)cc2)c1
  0.1 | 25.0
> Cc1ccc(Cn2nnc(C(=O)Nc3ccc(F)c(F)c3)c2N)cc1
  1.8 | 38.3
> COc1ccc(N(C)C(=O)CCn2cnc3onc(-c4ccc(F)cc4)c3c2=O)c(OC)c1
  1.6 | 11.0
> CCN(CC)CCCNC(=O)c1ccc2nc(N3CCCCC3)sc2c1
  -0.4 | -5.8
> COc1ccc2c(c1)c1c(c(=O)n(-c3ccc(F)c(Cl)c3)c(=O)n1Cc1ccccc1C)n2C
  -0.3 | 6.0
> Cc1ccc(S(=O)(=O)NCc2nc(-c3cccc(C)c3)no2)cc1
  2.0 | -14.2
> Cc1cccc(NC(=O)c2cc3c([nH]c2=O)CC(c2ccccc2)CC3=O)c1 (stereo not given)
  1.2 | -21.1

# Other results follow:
# Order of results – TRPML1 ag | TRPML1 blocker
> Cc1ccc(S(=O)(=O)c2nc(-c3cccc(C)c3)oc2N2CCCCC2)cc1
  -0.2 | 35.5
> Clc1cccc(-n2cc(-c3ccccc3)c3c(NC4CCCC4)ncnc32)c1
  1.4 | 5.1
> Cc1cccc(CNC(=O)CCCN2C(=O)CCn3nc(-c4cn(C)c5ccccc45)cc32)c1
  2.0 | -24.1
> COc1cc2c(cc1OC)n(CC(=O)c1cccc(Cl)c1)c(=O)n1nc(CCn3nc(C)cc3C)nc21
  1.7 | 12.7
> COc1ccc(C(=O)Nc2ccc3oc(-c4ccc(F)cc4Cl)nc3c2)cc1
  1.7 | 8.4
> Cc1ccc(C)c(CNC(=O)CCn2cccn2)c1
  0.7 | -5.5
> COc1ccc(CNC(=O)c2ccc3c(O)c(S(=O)(=O)c4ccccc4)c(=O)[nH]c3c2)cc1
  0.0 | -13.0
> CCOc1ccc(-c2nc3c(c(SCC(=O)N4CCCCC4)n2)Cc2cccc(OC)c2O3)cc1
  -0.9 | 8.1
> CCn1c(C(=O)N2CCC(C(=O)N3CCN(c4cc(C)ccc4C)CC3)CC2)cc2sccc21
  1.4 | 16.0
> Cc1cc(C)c2oc(C(=O)Nc3sc4c(c3C(=O)NCc3ccco3)CCC4)cc(=O)c2c1
  4.3 | 42.5
> CC12CCC=CC1C(c1ccc(F)c(/C=C/c3ccccc3)c1)N(Cc1ccccc1)C2=O (stereo not given)
  0.6 | -11.9
> Cn1nnnc1SCCCNCc1cc(Br)ccc1OCc1ccccc1F
  -0.3 | 17.6
> CCOc1ccc(NS(=O)(=O)c2ccc3[nH]cc(C(=O)N4CCCCCC4)c(=O)c3c2)cc1
  2.9 | -2.9
> O=C(NCCN1CCCCC1)c1ccc(Cn2c(SCc3cccc(F)c3)nc3cccnc32)cc1
  -0.1 | 0.9
> CC1(C(=O)Nc2cccc(C(F)(F)F)c2)Cc2ccccc2C(=O)O1 (stereo not given)
  1.6 | -9.3
> CCOc1ccc(-c2nnc(SCC(=O)Oc3ccccc3)o2)cc1
  0.3 | -11.8
> Cc1cccc(C(=O)Nc2ccc(-c3nc4cc(C(C)C)ccc4o3)cc2)c1
  1.1 | -13.1
> CCC/C=C1/CCCOC(C(=O)NCC2CC2)(C(F)(F)F)C1 (stereo not given)
  0.1 | 7.4
> CCOc1ccc(S(=O)(=O)NCCc2sc3nc(-c4ccc(C)cc4)nn3c2C)cc1
  5.3 | -0.6
> COc1ccccc1CNC(=O)C1CCN(S(=O)(=O)c2ccc3c(c2)CCCN3C(C)=O)CC1
  0.1 | -4.2
> COC(=O)c1ccc(NC(=O)CSc2nc3c(c(=O)n(C)c(=O)n3C)n2Cc2ccccc2)cc1
  -0.7 | 3.4
> CCOc1ccc(NC(=O)CCn2cccn2)cc1
  1.3 | 25.9
> CCc1c(-c2ccccc2)nc2ccccc2c1C(=O)NC(C)c1ccccc1 (stereo not given)
  4.6 | 32.0
> Cc1ccc(-c2nnc(SCCOc3ccccc3)o2)cc1
  5.2 | ?
> CC1=C(C(=O)Nc2ccccc2)C(c2ccc(C)cc2)n2nc(SCc3ccccc3C)nc2N1 (stereo not given)
  -0.8 | -11.0
> O=C(Cn1ncc2c(=O)oc3ccccc3c21)Nc1cc(F)ccc1F
  -0.7 | 8.9
> Cc1ccc(C2=Nc3ccccc3N(CC(=O)NCc3ccc(Cl)cc3)C(=O)C2)cc1C
  -0.4 | -10.5
> Cc1ccc2c(c1)CC(C)N2S(=O)(=O)c1nnc(NC(=O)C(C)C)s1 (stereo not given)
  0.7 | 33.9
> CCC(C)Nc1ncnc2c1cnn2-c1ccc(F)cc1 (stereo not given)
  -0.5 | -11.4
> O=C(NCc1cccc(F)c1)c1ccc(-n2cnc3cccnc32)cc1
  0.5 | 34.1
> Cc1ccccc1OCC(=O)Nc1sc2c(c1C(=O)OC(C)C)CCCC2
  -0.5 | 8.3
> Cc1cccc(C)c1NC(=O)CN1C(=O)c2cccc3cccc1c23
  -1.0 | -20.6
